Assay outcomes (PubChem)
MT1-MMP act inh – blockers of MT1-MMP proenzyme processing, primary screen, HT1080 RFP-PRO-GFP cells, GFP/RFP fluorescence. Matrix metalloproteinase-14 (Homo sapiens), P50281. GFP/RFP ratio fluorescence, overnight; percent of plate control window, DMSO zero. GFP/RFP ratio change, % at 20 µM. 360,000 compounds, 0.061% hits. AID 651647, 2012;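 active = GFP/RFP ratio change of at least 30% with cell ATP level not reduced by more than half and red fluorescence within 50% of control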; note: strong numbers were not always called active
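Compound: 20 µM single dose, 1% DMSO / System: HT1080 RFP-PRO-GFP cells / Controls: DMSO and RFP-L50D-GFP cell wells / Read-out basis: GFP/RFP fluorescence ratio / Schedule: overnight compound exposure at 37 °C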
HIV Env fusion – inhibitors of HIV-1 Env-driven cell-cell fusion, primary screen, HeLa-JRFL effector, CEM21 target cells, luciferase; inhibition, % at 12.3 µM; AID 651610, 2012; 360,000 compounds, 1.1% hits;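 active = mean replicate inhibition score of at least 50 and every replicate individually at or above 50; inconclusive = only one of the two criteria met; inactive = mean below 50 and not all replicates reaching 50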;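 note: 0% = plate neutral controls and 100% = maraviroc near 300 nM; one replicate is shown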
MT1-MMP act inh RFP – also measured in MT1-MMP act inh; calls as there; RFP signal change, %; measured here: RFP expression control read;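 0 = vehicle wells; hits needed this value within 50% of zero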
* hit, by the source's call; ? = inconclusive.

SMILES	MT1-MMP act inh	MT1-MMP act inh RFP	HIV Env fusion
O=C(Cc1ccc([N+](=O)[O-])cc1)NCCc1ccc2c(c1)OCO2	4	-1	18
CCOc1ccc(CCN2C(=O)C(=O)N([C@@H](Cc3ccccc3)CN3CCC[C@H]3CN3C(=O)C(=O)NC[C@@H]3Cc3ccc(O)cc3)C[C@@H]2Cc2ccc(O)cc2)cc1	-2	3	-34
Cc1cnc(NC(=O)c2cc(-c3ccccc3)nn2-c2ccccc2)s1	1	1	-3
CCC(=O)N1CCC(C)(C(=O)Nc2cc(OC)c(OC)c(OC)c2)C1 (configuration not stated)	2	4	-15
CCCCNC(=O)C[C@@H]1C[C@@]2(C(=O)OCC)CCC=C2N(Cc2ccc3c(c2)OCO3)C1=O	2	1	-30
CCCCNC(=O)C1C(c2ccc(OC)cc2)=Nc2ccccc2N1C(=O)Cc1cc(OC)cc(OC)c1 (configuration not stated)	-5	-5	34
COc1cccc(C(=O)NCCN2CCC(n3c(=O)[nH]c4ccccc43)CC2)c1	7	7	-12
CNc1nc(-c2ccccc2)c2sccc2n1	-2	2	-153
COc1ccc(CN(C)C(=O)[C@H](Cc2ccccc2)NC(=O)c2ccco2)c(OC)c1	-5	-3	6
COc1ccc(CN2C(=O)c3ccccc3C2c2nnnn2Cc2ccccc2)cc1 (configuration not stated)	4	4	34
OC[C@@H]1CN(Cc2cccc(C(F)(F)F)c2)C[C@H](n2cnc3c(NCc4ccco4)ncnc32)O1	5	-5	-43
O=C1C(=Cc2ccc(F)cc2)CCc2ccccc21	10	2	-7
CCCCc1nnc(NC(=O)c2ccc(OCc3c(C)noc3C)cc2)s1	-3	-27	19
C=C(C)CN=CC1(C)CCC(C)=CO1 (configuration not stated)	-5	1	18
C[C@H](O)[C@@H]1C(=O)N2CCc3c([nH]c4ccccc34)[C@@H]2C[C@@H]1N(C)C(=O)NC1CCCCC1	3	0	-81
CC(C)n1nnnc1C1c2ccccc2C(=O)N1CCOc1ccccc1 (configuration not stated)	1	6	-29
O=C(COC(=O)c1ccccn1)NCCc1ccc(Cl)cc1	2	6	-5
COC(=O)[C@@]1(Cc2ccc(F)cc2)[C@H]2c3cc(C(=O)N4CCCC4)n(Cc4ccccc4)c3C[C@H]2CN1C(=O)c1ccccc1	-16	-34	-136
COC(=O)NC1CC2C=CC1C1C=CC21 (configuration not stated)	0	2	16
COC(=O)C1(C(=O)OC)c2ncccc2N(S(=O)(=O)c2ccc(C)cc2)C1CC(=O)c1ccccc1 (configuration not stated)	-2	1	11

Continued (2 carried over from the part before).
SMILES	MT1-MMP act inh	MT1-MMP act inh RFP	HIV Env fusion
COC(=O)NC1CC2C=CC1C1C=CC21 (configuration not stated)	0	2	16
COC(=O)C1(C(=O)OC)c2ncccc2N(S(=O)(=O)c2ccc(C)cc2)C1CC(=O)c1ccccc1 (configuration not stated)	-2	1	11
O=C(c1noc2c1CCCCC2)N1CCN(C(c2ccccc2)c2ccccc2)CC1	-6	-12	8
CC(C)(C)OC(=O)Nc1ccccc1-n1nnnc1C(C(=O)c1ccc(F)cc1)N1CCN(c2ccccn2)CC1 (configuration not stated)	-7	0	-25
CC(C)C[C@@H]1COc2cccc(N3CCN(Cc4ccccc4F)CC3)c2S(=O)(=O)N1	7	0	-6
COc1ccc(OC)c(CN2C(=O)c3ccccc3C2c2nnnn2C(C)C)c1 (configuration not stated)	0	5	32
C[C@@H]1CN([C@@H](C)CO)S(=O)(=O)c2ccc(Br)cc2O[C@H]1CN(C)Cc1ccc(-c2ccccc2)cc1	-2	-3	?
N#Cc1ccc(C(C(=O)NCc2ccccc2)n2c(=O)c(-c3cc4ccccc4[nH]3)nc3ccccc32)cc1 (configuration not stated)	-9	-9	?
CCOc1cc(OCC)cc(C(=O)NCCN2CCC(n3c(=O)[nH]c4ccccc43)CC2)c1	0	-4	-30
O=c1ccc(=O)n(CCc2ccccn2)[nH]1	0	0	4
COc1ccc(C(C(=O)NC(C)(C)C)n2c(=O)c(-c3ccccc3)nc3ccccc32)cc1 (configuration not stated)	-10	-10	-11
CC(=O)Nc1ccc(CNc2nc(NC(C)C)nc3cc(-c4ccccc4)sc23)cc1	-18	-24	-23
CCOC(=O)[C@]12CCCC=C1N(CCc1ccc(OC)c(OC)c1)C(=O)[C@H](CC(=O)NCc1ccccc1)C2	4	1	-22
COC(=O)[C@@]12C[C@@H](CC(=O)NCCCCc3ccccc3)C(=O)N(Cc3cccc4ccccc34)C1=CCC(C)(C)C2	-11	-15	-1
COC(=O)[C@@]12C[C@@H](CC(=O)NCCCN3CCCC3=O)C(=O)N(CCc3ccc(OC)c(OC)c3)C1=CCC(C)(C)C2	3	3	-3
COc1ccc(NC(=O)c2cc(-c3sc(NC(=O)c4ccccc4)nc3C)n(-c3ccc(Br)cc3)n2)cc1	-2	-1	-11
Cc1cccc(C)c1NC(=O)C(CCc1ccccc1)n1c(=O)c(-c2cc3ccccc3[nH]2)nc2ccccc21 (configuration not stated)	-7	-4	1
Cc1ccc(-c2nc3c(Cl)cc(C(F)(F)F)cn3c2Cc2ccccc2C(F)(F)F)cc1	0	2	3
Cc1cccc(C)c1NC(=O)C(c1ccncc1)n1c(=O)c(-c2ccco2)nc2ccccc21 (configuration not stated)	-7	-1	8
CC(C)(C)C1CCSC2=NCCC[C@]2(c2ccccc2)C1 (some centres not stated)	2	-2	-168
COc1ccc(CCN2C(=O)c3ccccc3C2c2nnnn2-c2ccc3c(c2)OCCO3)cc1OC (configuration not stated)	0	4	4
N#Cc1c(N)[nH]c(C(=O)c2ccccc2)c1-c1ccccc1Br	5	2	6

Record cards (already shown). Order of screens: MT1-MMP act inh | MT1-MMP act inh RFP | HIV Env fusion
Listed for CCOC(=O)[C@]12CCCC=C1N(CCc1ccc(OC)c(OC)c1)C(=O)[C@H](CC(=O)NCc1ccccc1)C2 : 4 | 1 | -22
Listed for N#Cc1c(N)[nH]c(C(=O)c2ccccc2)c1-c1ccccc1Br : 5 | 2 | 6
Listed for O=C(c1noc2c1CCCCC2)N1CCN(C(c2ccccc2)c2ccccc2)CC1 : -6 | -12 | 8
Listed for COc1ccc(C(C(=O)NC(C)(C)C)n2c(=O)c(-c3ccccc3)nc3ccccc32)cc1 (configuration not stated) : -10 | -10 | -11

Carrying on:
SMILES	MT1-MMP act inh	MT1-MMP act inh RFP	HIV Env fusion
CCCCC[C@H](C)N1C[C@@H](COCc2ccccc2)Oc2cc(N3CCC[C@@H]3COC)ccc2S1(=O)=O	-2	-6	-19
CN(C)c1ccc(C(c2ccc(N(C)C)cc2)C(O)c2ccccc2)cc1 (configuration not stated)	1	-2	-37
CN(C)c1ccc(C(=O)OCc2cc(=O)n3ccsc3n2)cc1	-2	3	-64
CC1(C(=O)NCc2ccc(C(F)(F)F)cc2)CCN1Cc1ccccc1OC(F)F (configuration not stated)	-3	-6	13
CC(c1nc2ccccc2[nH]1)n1c(=O)c(-c2cccs2)nc2ccccc21 (configuration not stated)	-2	-1	23
O=C1NC[C@H](CCCCN2C[C@H](Cc3ccccc3)N(Cc3ccccc3)C(=O)C2=O)N(CC2CCCCC2)C1=O	1	-2	2
CCC(c1nnnn1-c1c(C)cccc1C)N1CCN(c2cccc(C(F)(F)F)n2)CC1 (configuration not stated)	-6	-10	6
CCOC(=O)/C=C1\SCC(=O)N1CC(O)CN1C(=O)CS/C1=C/C(=O)OCC (configuration not stated)	-1	2	0
O=C(NCc1ccccc1)C(c1ccncc1)n1c(=O)c(-c2cc3ccccc3[nH]2)nc2ccccc21 (configuration not stated)	-10	-7	20
OC[C@@H]1CN(CCc2ccccc2)C[C@H](n2cnc3c(NCc4ccc(F)cc4)ncnc32)O1	3	-8	14
CC(=NN(Cc1ccccc1)c1ccccc1)c1ccccc1	3	-1	2
CCCCCCN1CCN(C2CN(Cc3cn(Cc4ccc(F)cc4)nn3)S(=O)(=O)C2)CC1 (configuration not stated)	4	4	?
O=[N+]([O-])c1cc2c(c3cccnc13)COCO2	5	4	5
COC(=O)/C=C1\OCc2cc(C)ccc21	4	0	-27
CCCCN1C(=O)C(CC(=O)NC2CCCCC2)CC(C(=O)N2CCCCCC2)=C1C (configuration not stated)	1	2	-24
CC(C)C[C@H]1CN([C@@H](CC(C)C)CN2CCC[C@H]2CN2C(=O)C(=O)NC[C@@H]2Cc2ccc(O)cc2)C(=O)C(=O)N1CC1CCCCC1	3	5	-28
CCCC[C@@H]1CNC(=O)C(=O)N1CCc1cccc(F)c1	8	1	-4
C[C@@H](NC(=O)[C@@H]1CCCN1C(=O)[C@@H]1CCCN1C(=O)c1ccccc1)c1ccccc1	15	21	12
CC(C)C[C@H]1CN(CCCC[C@H]2CNC(=O)C(=O)N2CCc2ccc(O)cc2)C(=O)C(=O)N1CCc1ccccc1	2	6	-58
Cc1[nH]nc(-c2cccnc2)c1N=NN(C)C	3	-14	24
CCCCc1c(-c2ccc(OC)c(OC)c2)ncn1CCc1ccccc1OC	0	-26	17
O=[N+]([O-])c1ccc(Br)c(CN2CCN(c3ncc(Cc4ccccc4)cn3)CC2)c1	-1	-19	-4
CCOC(=O)[C@]12CCCC=C1N(Cc1ccco1)C(=O)[C@H](CC(=O)N1CCOCC1)C2	5	3	-52
O=C(NCc1ccccn1)c1cccc(S(=O)(=O)Nc2ccc(F)cc2)c1	1	-5	-6
Nc1nc2ncccn2c1-c1ccc(C(F)(F)F)cc1	2	2	-5
CC1(C)OC(=O)C2=C(C[C@@H](CCc3ccccc3)O[C@H]2CCc2cccc(Cl)c2)O1	-2	-13	5
CCCc1nc2cc(C)c(Br)c(C)n2c1Cc1ccsc1	-4	-5	23
CCNC(=O)C1(C)CCCN(Cc2cccc3c(OC)cc(C(=O)OCC)cc23)C1 (configuration not stated)	-3	2	15
CCCCC[C@H](C)N1C[C@H](COCc2ccccc2)Oc2cc(N3CC[C@H](N(C)C)C3)ccc2S1(=O)=O	2	-3	14
CC(C)C[C@@H]1COc2cc(N3CCSCC3)ccc2S(=O)(=O)N1	6	0	-37
COc1ccc([C@@]23Oc4cc(OC)cc(OC)c4[C@]2(O)[C@H](O)[C@H](C(=O)N(C)C)[C@H]3c2ccccc2)cc1	-48	-35	8
CCOC(=O)C1(C(=O)OCC)COC(=O)C2(CC)OC21 (configuration not stated)	-3	3	-29
CC(C)C[C@@H]1CN(CCCC[C@H]2CNC(=O)C(=O)N2CCC2CCCCC2)C(=O)C(=O)N1CCc1ccc(O)cc1	1	3	-4
COC(=O)[C@@]1(Cc2ccc(F)cc2)[C@H]2c3cc(C(=O)N4CCCC4)n(C)c3C[C@H]2CN1C(=O)c1ccccc1	3	-4	-17
c1ccc2c(C(c3nnnn3-c3ccc4c(c3)OCCO4)N3CCOCC3)ccnc2c1 (configuration not stated)	3	5	1
Nc1nc2ccccc2cc1C(=O)NCc1cccs1	1	-25	-6
O=C(NCc1ccccn1)[C@@H]1CCCN1C(=O)[C@@H]1CCCN1C(=O)c1ccccc1	4	6	1
CCCCCC1CC(=O)NC1(C(=O)OCC)C(=O)OCC (configuration not stated)	1	5	-1
COC(=O)CCCn1cc(CN2CC(N3CCN(Cc4cccc(C)c4)CC3)CS2(=O)=O)nn1 (configuration not stated)	2	3	12
CCCCn1nnnc1C(c1cc2ccccc2o1)N1CCN(c2c(C)cccc2C)CC1 (configuration not stated)	-14	-17	18
CC(C)(C)c1ccc(C(=O)NCCC(=O)Nc2ccc3c(c2)OCCO3)cc1	-1	0	-71
NC(=O)c1csc(-c2ccc(CO)o2)n1	1	5	3
Cc1ccccc1NC(=O)CC1C(=O)Nc2ccccc2N1CC(=O)N(C)C1CCS(=O)(=O)C1 (configuration not stated)	-1	3	-18
O=C1NC(Cc2ccc(O)cc2)c2nc3ccc(Br)cc3c(=O)n2-c2ncccc21 (configuration not stated)	-10	-3	3
Cc1ccc(CN2C(=O)CN(S(C)(=O)=O)CC2(C)C(=O)NC(C)C)cc1 (configuration not stated)	3	6	-19
C#CCNC(=O)C[C@@H]1C[C@@]2(C(=O)OCC)CCC=C2N(Cc2ccco2)C1=O	-2	8	4
CCCCNC(=O)C[C@@H]1C[C@@]2(C(=O)OC)CCCCC=C2N(Cc2ccc3c(c2)OCO3)C1=O	4	2	0
O=C(O)C1C(c2ccccc2)=C1c1ccc(Br)cc1 (configuration not stated)	4	5	-1
CC1OC(c2ccccc2)OC2COC(c3ccccc3)OC12 (configuration not stated)	-1	3	-9
COC(=O)[C@]12CCCCC=C1N(Cc1ccc3c(c1)OCO3)C(=O)[C@H](CC(=O)N1CCOCC1)C2	3	3	9
CCC(CC)c1nnc(NC(=O)CSCc2c(C)noc2C)s1	-6	3	-13
CC(C)c1ccc(C2OC(CCc3ccccc3)Cc3[nH]c(=S)[nH]c(=O)c32)cc1 (configuration not stated)	-3	-5	-147

Given with two lines to a compound: part of the list above.
Values in the order: MT1-MMP act inh, MT1-MMP act inh RFP, HIV Env fusion
> NC(=O)c1csc(-c2ccc(CO)o2)n1
 : 1, 5, 3
> Cc1ccccc1NC(=O)CC1C(=O)Nc2ccccc2N1CC(=O)N(C)C1CCS(=O)(=O)C1 (configuration not stated)
 : -1, 3, -18
> O=C1NC(Cc2ccc(O)cc2)c2nc3ccc(Br)cc3c(=O)n2-c2ncccc21 (configuration not stated)
 : -10, -3, 3

Some of the compounds tested, so the mix of outcomes need not match the whole.
